HNF4A DNA FP: change in binding of human HNF4 alpha to DNA. P41235. HNF4a-FITC DNA binding, fluorescence polarization, 1 h. activity change, % at 10 µM. 360,000 tested, 0.3% active. AID 1224865; in the data active = activity change above about 30%, passing the limit was not always enough;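 also: controls were the assay level and a saturating level of protein; the project sought stronger binding though the title names inhibitors; some compounds called inactive have numbers as strong as hits; positive values seem to mean higher polarization but the record does not say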
Target sequence (P41235 whole entry, looked up): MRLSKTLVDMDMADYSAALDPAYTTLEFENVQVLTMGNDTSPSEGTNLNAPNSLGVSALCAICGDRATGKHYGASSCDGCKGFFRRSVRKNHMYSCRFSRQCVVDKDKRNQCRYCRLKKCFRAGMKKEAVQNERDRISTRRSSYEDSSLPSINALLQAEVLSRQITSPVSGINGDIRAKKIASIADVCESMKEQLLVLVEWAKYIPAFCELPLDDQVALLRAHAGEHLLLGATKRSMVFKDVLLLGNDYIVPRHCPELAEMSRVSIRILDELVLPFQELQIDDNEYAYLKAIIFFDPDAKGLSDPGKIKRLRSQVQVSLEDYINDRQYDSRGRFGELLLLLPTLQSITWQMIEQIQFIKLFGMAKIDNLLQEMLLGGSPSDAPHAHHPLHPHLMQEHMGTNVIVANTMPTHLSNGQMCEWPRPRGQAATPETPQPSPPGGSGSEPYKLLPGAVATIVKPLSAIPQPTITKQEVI
ALR inh: human ALR oxidase inhibition via reduced H2O2; 290,000 tested, 3.8% active; P55789; purified ALR, DTT oxidation, H2O2 HRP-luminol luminescence; AID 485317; inhibition, % (no concentration beside the values);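 active = mean and each replicate at 75% or more; inconclusive = only one of the two met; inactive = neither met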;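 also: stock transfer was 7.5 nL into about 7.5 µL; 0% = neutral wells and 100% = wells with inactivated enzyme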
Target sequence (P55789 whole entry, looked up): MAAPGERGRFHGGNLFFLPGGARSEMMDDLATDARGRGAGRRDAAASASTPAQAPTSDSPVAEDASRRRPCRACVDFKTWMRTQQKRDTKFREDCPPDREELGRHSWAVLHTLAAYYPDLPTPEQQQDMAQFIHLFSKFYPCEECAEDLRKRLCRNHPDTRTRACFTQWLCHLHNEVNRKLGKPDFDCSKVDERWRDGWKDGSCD
Vif A3G: HIV-1 Vif–A3G interaction blockers – biochemical, TR-FRET, GST-Vif 1-94, biotin-A3G peptide, dose response retest, primary screen (AID 1117319); TR-FRET GST-Vif / biotin-A3G peptide binding; higher % means a stronger effect; test concentration not given here; strong numbers were not always called active; inhibition, %, or IC50 in µM where a hit was titrated; 260,000 tested, 0.57% active;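 active = above the screen mean plus three standard deviations and confirmed in dose response; inconclusive = results disagree or hit not tested in dose response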;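 also: Vif residues 1-94 fused to GST binding biotinylated APOBEC3G peptide 110-148; 0% = full assay without inhibitor and 100% = GST in place of GST-Vif; retest series ran down from 100 µM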
LANA-H2A inh: blocks KSHV LANA binding to histone H2A/H2B; cell-free LANA-H2A/H2B peptide, fluorescence polarization; inhibition, % (test concentration not listed); 320,000 tested, 0.6% active; Q9QR71; AID 2629; in the data active = inhibition mostly above about 10%, no sharp cut-off; inactive = mostly below about 6.7%;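 also: stock transfer was 7.5 nL into about 10 µL; 0% = median of vehicle wells and 100% = median of positive control wells; one replicate is shown; the record names a cut of 25% in any replicate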
Calb FLC: C. albicans growth modulation with fluconazole; AID 1979; growth inhibition, % (no concentration beside the values); 300,000 tested, 0.57% active; C. albicans CaCi-2 (fluconazole-resistant clinical isolate) + fluconazole, Alamar Blue growth, 48 h;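 active = most replicates above 75%; inconclusive = exactly half above 75%; inactive = most below 75%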;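 also: all wells also contain fluconazole at 8 µg/ml as a sub-toxic cotreatment; 0% = median of DMSO wells and 100% = median of geldanamycin control wells; wells of about 8 µL received 7.5 nL stock; the first replicate is given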
B2AR ag: activates human beta-2 adrenergic receptor causing internalization | response, % (test concentration not listed) | Am2.2-beta2AR cells, FAP receptor internalization, flow cytometry; reference of the scale not given here | AID 504454 | 340,000 tested, 0.43% active | P07550;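 active = response above a set limit, near 3 SD of response in nonfluorescent compounds, cut at about 42% in these data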;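 also: stock transfer was 100 nL into about 11 µL; a reference agonist was the positive control; negative values mostly stem from fluorescent compounds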
Target sequence (P07550 whole entry, looked up): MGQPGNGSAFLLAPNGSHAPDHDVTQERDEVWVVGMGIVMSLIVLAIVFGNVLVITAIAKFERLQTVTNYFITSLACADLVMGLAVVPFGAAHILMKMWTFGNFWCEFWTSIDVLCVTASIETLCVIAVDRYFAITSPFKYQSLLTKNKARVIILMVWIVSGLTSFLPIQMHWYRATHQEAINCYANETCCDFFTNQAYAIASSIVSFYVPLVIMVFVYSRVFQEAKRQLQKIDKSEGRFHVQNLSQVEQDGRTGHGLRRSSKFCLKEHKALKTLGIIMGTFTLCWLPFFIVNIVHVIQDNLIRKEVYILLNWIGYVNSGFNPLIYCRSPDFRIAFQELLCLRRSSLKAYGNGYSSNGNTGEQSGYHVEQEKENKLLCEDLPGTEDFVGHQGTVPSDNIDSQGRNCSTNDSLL
RanGTP-Imp inh: disruptors of Ran-importin-beta complex formation – biochemical, FRET, CFP-Ran, YFP-importin-beta, homogeneous, primary screen; inhibition, % (no concentration beside the values); 300,000 tested, 1.1% active; cell-free CFP-Ran/YFP-importin-beta FRET ratio;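 active = most replicates above 15%; inconclusive = exactly half above 15%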;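 also: 0% = DMSO wells and 100% = Ran loaded with GDP instead of GTP; wells of about 40 µL received 100 nL stock; the first replicate is given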
Starred values were filed as active, the others as inactive.

CCCCCC(=O)Nc1ccc(S(=O)(=O)NC2=NCCCCC2)cc1 was read as HNF4A DNA FP -0.3, ALR inh 10, Vif A3G -7%, LANA-H2A inh 3.7 and B2AR ag 9.
`O=C(Nc1cccs1)Nc1ccc(Br)cc1F` gave HNF4A DNA FP 2.2, ALR inh 63, Vif A3G 30%, LANA-H2A inh -0.8, Calb FLC -1, B2AR ag -11 and RanGTP-Imp inh -0.4.
`O=C(NCCc1csc(-c2ccccc2)n1)c1cccs1` gave HNF4A DNA FP -0.6, ALR inh 20, Vif A3G 2%, LANA-H2A inh -3.1, Calb FLC -8, B2AR ag -1 and RanGTP-Imp inh -2.6.
`O=C(NCCCN1CCOCC1)c1coc2ccccc2c1=O` gave HNF4A DNA FP 0.7, ALR inh 12, Vif A3G -1%, LANA-H2A inh 5.6, Calb FLC 7, B2AR ag -12 and RanGTP-Imp inh 0.2.
Screening CCOc1ccc(C2CC(c3ccc(F)cc3)n3ncnc3N2)cc1 (centres undefined) returned HNF4A DNA FP 1.9, ALR inh -8, LANA-H2A inh -0.8, Calb FLC 10, B2AR ag 1 and RanGTP-Imp inh -5.6.
`COc1ccc(N2CC(NC(=O)N3CCN(C(=O)c4ccco4)CC3)CC2=O)cc1OC` (centres undefined) gave HNF4A DNA FP -0.8, ALR inh -1, Vif A3G -2%, LANA-H2A inh -0.9, Calb FLC 13, B2AR ag 1 and RanGTP-Imp inh -3.0.
For Cc1cc(C)nc(-n2ncc3c2CC(c2ccc(F)cc2)CC3=O)n1 (centres undefined) the results were HNF4A DNA FP -3.3, ALR inh 2, Vif A3G inconclusive, LANA-H2A inh 1.5, Calb FLC 9, B2AR ag 1 and RanGTP-Imp inh 3.8.
Screening Cc1nc(SC(C(=O)c2ccccc2)c2ccccc2)nc2ccccc12 (centres undefined) returned HNF4A DNA FP -2.0, Vif A3G -24%, LANA-H2A inh -2.6, Calb FLC 12, B2AR ag -10 and RanGTP-Imp inh 5.3.
For Cc1oc(-c2ccc(Cl)cc2)nc1CS(=O)CC(=O)NC(C)c1ccccc1 (centres undefined) the results were HNF4A DNA FP -2.9, ALR inh 98*, Vif A3G 5%, LANA-H2A inh -2.2, Calb FLC 8, B2AR ag 0 and RanGTP-Imp inh 3.8.
Screening Cc1ccccc1Cn1cc(S(=O)(=O)c2ccc(C(C)C)cc2)c(=O)c2cc3c(cc21)OCO3 returned HNF4A DNA FP -2.0, ALR inh -9, LANA-H2A inh 9.3, Calb FLC 6, B2AR ag 3 and RanGTP-Imp inh -0.3.
COc1ccc(C(=O)NC2CC(C)(C)Cc3c2cnn3-c2ccccc2)c(OC)c1 (centres undefined) was read as HNF4A DNA FP -1.0, ALR inh 1, Vif A3G 7%, LANA-H2A inh -5.0, Calb FLC 38, B2AR ag -6 and RanGTP-Imp inh 7.3.
`O=C(CCCSc1nc2sc3c(c2c(=O)[nH]1)CCC3)NCCO` gave HNF4A DNA FP 1.8, ALR inh -2, Vif A3G 4%, LANA-H2A inh -6.0, Calb FLC 2, B2AR ag -1 and RanGTP-Imp inh -0.7.
For O=c1[nH]c(=O)c2nc3c4ccccc4c4ccccc4c3nc2[nH]1 the results were HNF4A DNA FP -21, ALR inh 2, Vif A3G -8%, LANA-H2A inh 4.2, Calb FLC 14, B2AR ag -4 and RanGTP-Imp inh 2.6.
Screening CCC1Oc2ccc(C)cc2N(CC(=O)NCc2cccs2)C1=O (centres undefined) returned HNF4A DNA FP -3.3, ALR inh -7, Vif A3G -6%, LANA-H2A inh 11, Calb FLC 17, B2AR ag 9 and RanGTP-Imp inh -2.0.
For COc1ccc(C(=O)NC(=S)NCc2ccc(-c3nc4ccccc4o3)cc2)cc1OC the results were HNF4A DNA FP -4.0, ALR inh -11, Vif A3G 19%, LANA-H2A inh 0.6, Calb FLC inconclusive, B2AR ag 4 and RanGTP-Imp inh 8.7.
Screening CCN(CC(=O)Nc1c(F)cccc1F)C(=O)CNC(=O)c1ccc(C)s1 returned HNF4A DNA FP 0.8, ALR inh -2, LANA-H2A inh 2.0, Calb FLC -6, B2AR ag 8 and RanGTP-Imp inh -2.8.
Screening CCn1c(=O)c(C(=O)CN2CCN(Cc3ccc4c(c3)OCO4)CC2)c(N)n(Cc2ccccc2)c1=O returned HNF4A DNA FP 2.5, ALR inh -14, Vif A3G 3%, LANA-H2A inh 3.5, Calb FLC -6, B2AR ag -6 and RanGTP-Imp inh 0.3.
`CCOC(=O)c1cc(CC)sc1NC(=O)c1cc(OC)c(OC)c(OC)c1` gave HNF4A DNA FP 4.2, ALR inh -10, Vif A3G -34%, LANA-H2A inh -4.1, Calb FLC -1, B2AR ag -2 and RanGTP-Imp inh 1.6.
Screening CC(C)CC(NC(=O)C(CC(C)C)NC(=O)C(Cc1ccc(OCc2ccccc2)cc1)NC(=O)OC(C)(C)C)C(N)=O (centres undefined) returned HNF4A DNA FP 3.0, ALR inh -4, Vif A3G -2%, LANA-H2A inh 2.7, Calb FLC 8, B2AR ag 2 and RanGTP-Imp inh -1.8.
For CCCC(CCC)C(=O)Nc1ccncc1 the results were HNF4A DNA FP 4.8, ALR inh -5, Vif A3G 0%, LANA-H2A inh -1.6, Calb FLC -5, B2AR ag 6 and RanGTP-Imp inh 2.1.

The last 2 records of the section before open the next one:
Screening CC(C)CC(NC(=O)C(CC(C)C)NC(=O)C(Cc1ccc(OCc2ccccc2)cc1)NC(=O)OC(C)(C)C)C(N)=O (centres undefined) returned HNF4A DNA FP 3.0, ALR inh -4, Vif A3G -2%, LANA-H2A inh 2.7, Calb FLC 8, B2AR ag 2 and RanGTP-Imp inh -1.8.
For CCCC(CCC)C(=O)Nc1ccncc1 the results were HNF4A DNA FP 4.8, ALR inh -5, Vif A3G 0%, LANA-H2A inh -1.6, Calb FLC -5, B2AR ag 6 and RanGTP-Imp inh 2.1.
COCCNC(=O)c1cccc(OC2CCN(Cc3ccc(F)cc3OC)CC2)c1 was read as HNF4A DNA FP 1.0, ALR inh -5, LANA-H2A inh 2.9, Calb FLC 4, B2AR ag 5 and RanGTP-Imp inh -0.1.
CC(/C=N/NC(=O)c1ccco1)=C\c1ccccc1 was read as HNF4A DNA FP -2.6, ALR inh -1, Vif A3G 3%, LANA-H2A inh 0.9, Calb FLC 21, B2AR ag -3 and RanGTP-Imp inh -0.8.
Screening CN1CCN(c2nc(-c3cccs3)cc(C(F)(F)F)n2)CC1 returned HNF4A DNA FP -2.4, ALR inh -12, Vif A3G 14%, LANA-H2A inh -2.2, Calb FLC -21, B2AR ag 1 and RanGTP-Imp inh 5.3.
`O=C(O)CCc1ccc(-c2ccc(Br)cc2)n1CC(=O)O` gave HNF4A DNA FP -6.0, ALR inh 39, Vif A3G 18%, LANA-H2A inh -2.2, Calb FLC -1, B2AR ag 3 and RanGTP-Imp inh -3.0.
Screening Cc1nc(SCC(=O)NCc2ccc(F)cc2)c2c(=O)n(C)c(=O)n(C)c2n1 returned HNF4A DNA FP 0.7, ALR inh -12, Vif A3G 4%, LANA-H2A inh -0.4, Calb FLC -7, B2AR ag 10 and RanGTP-Imp inh 0.1.
COc1ccccc1NC(=O)c1ccc(NC(=O)CSc2ncccn2)cc1 was read as HNF4A DNA FP -3.5, ALR inh -8, Vif A3G -2%, LANA-H2A inh 7.9, Calb FLC -1, B2AR ag -8 and RanGTP-Imp inh -2.7.
For C[C@@H]1CN([C@@H](C)CO)C(=O)c2cc(NC(=O)CCC(F)(F)F)ccc2O[C@H]1CN(C)S(=O)(=O)c1ccc(Cl)cc1 the results were HNF4A DNA FP -4.6, ALR inh -3, LANA-H2A inh 1.5 and B2AR ag 4.
`CC(=O)c1c(N=CN(C)C)nc(C)nc1-c1ccccc1` gave HNF4A DNA FP 0.2, ALR inh -39, Vif A3G 2%, LANA-H2A inh 0.5, Calb FLC 12, B2AR ag 6 and RanGTP-Imp inh 0.1.
CCN(CC)S(=O)(=O)c1ccc(C)c(NC(=O)CNc2cccc(S(=O)(=O)N3CCOCC3)c2)c1 was read as HNF4A DNA FP 0.2, ALR inh -18, Vif A3G -2%, LANA-H2A inh -2.3, Calb FLC 2, B2AR ag -2 and RanGTP-Imp inh 0.3.
Screening COCCn1c(SCC(=O)Nc2ccc(NC(C)=O)cc2)nc2ccccc2c1=O returned HNF4A DNA FP 3.6, ALR inh -6, Vif A3G -5%, LANA-H2A inh -0.6, Calb FLC 3, B2AR ag -8 and RanGTP-Imp inh 2.8.
For COc1ccc(OC)c(CCNC(=O)C(=O)Nc2ccc3nc4n(c(=O)c3c2)CCCCC4)c1 the results were HNF4A DNA FP 6.1, ALR inh -15, Vif A3G -5%, LANA-H2A inh 6.3, Calb FLC 1, B2AR ag 12 and RanGTP-Imp inh 0.4.
For S=c1[nH]nc(-c2ccccn2)n1/N=C/c1ccco1 the results were HNF4A DNA FP 1.5, ALR inh 60, Vif A3G -7%, LANA-H2A inh -4.0, Calb FLC -6, B2AR ag 5 and RanGTP-Imp inh 0.2.
`CCS(=O)(=O)n1nc(C(=O)N2CCOCC2)nc1N` gave HNF4A DNA FP 0.8, ALR inh -9, Vif A3G -4%, LANA-H2A inh -1.3, Calb FLC -7, B2AR ag 4 and RanGTP-Imp inh -5.0.
Screening COc1ccc(OC)c(S(=O)(=O)N2CCC3(CC2)OCCN3S(=O)(=O)c2ccccc2)c1 returned HNF4A DNA FP -4.5, ALR inh 0, Vif A3G -1%, LANA-H2A inh 6.6, Calb FLC 11, B2AR ag 8 and RanGTP-Imp inh -3.7.
CCCNC(=O)CN(CCc1ccccc1)S(C)(=O)=O was read as HNF4A DNA FP -0.1, ALR inh -9, Vif A3G -1%, LANA-H2A inh -0.4, Calb FLC -7, B2AR ag -1 and RanGTP-Imp inh 2.9.
`CCS(=O)(=O)N1CCN(Cc2ccncc2)CC1` gave HNF4A DNA FP -3.5, ALR inh -3, Vif A3G 2%, LANA-H2A inh 3.3, Calb FLC -11, B2AR ag 9 and RanGTP-Imp inh 0.8.
`COc1ccc(Cl)cc1C(=O)Nc1ccc(CN2CCCCC2)cc1` gave HNF4A DNA FP 1.8, ALR inh -11, Vif A3G -4%, LANA-H2A inh -0.8, Calb FLC -6, B2AR ag -2 and RanGTP-Imp inh 0.6.
For Cc1ccc(S(=O)(=O)N2CCC(C(=O)OCC(=O)N(C)Cc3ccccc3)CC2)cc1C the results were HNF4A DNA FP 3.1, ALR inh -18, Vif A3G -4%, LANA-H2A inh 2.7, Calb FLC -1, B2AR ag -7 and RanGTP-Imp inh 1.4.
For O=C(OCCN1C(=O)c2ccccc2C1=O)c1cc(=O)[nH]c2ccccc12 the results were HNF4A DNA FP -0.1, ALR inh 3, Vif A3G -4%, LANA-H2A inh -4.7, Calb FLC -8, B2AR ag -1 and RanGTP-Imp inh -0.1.
Screening CC(=O)N=c1sc(S(N)(=O)=O)nn1C returned HNF4A DNA FP -5.8, ALR inh -9, LANA-H2A inh 0.1, B2AR ag 0 and RanGTP-Imp inh -5.3.
O=C(NCCN1CCOC1=O)C1CCC(=O)N(CCc2ccc(Cl)cc2)C1 (centres undefined) was read as HNF4A DNA FP 1.9, ALR inh 2, Vif A3G -8%, LANA-H2A inh 0.7, Calb FLC -1, B2AR ag -2 and RanGTP-Imp inh -1.3.
Screening Cc1cc(C)n(CC(O)Cn2c3ccc(Br)cc3c3cc(Br)ccc32)c(=O)n1 (centres undefined) returned HNF4A DNA FP 1.4, ALR inh -7, Vif A3G -2%, LANA-H2A inh 15*, Calb FLC -17, B2AR ag -5 and RanGTP-Imp inh 3.1.
Screening COC(=O)c1[nH]c2cccc(C)c2c1NC(=O)CN1CCN(c2ccccc2OC)CC1 returned HNF4A DNA FP -2.2, ALR inh 15, Vif A3G 4%, LANA-H2A inh -1.1, Calb FLC 3, B2AR ag -6 and RanGTP-Imp inh inconclusive.

Source: PubChem BioAssay
